# Assay outcomes: PubChem, several laboratories
# PME-1 primary = PME-1 inhibitors via competitive probe labeling, primary screen, biochemical, fluorescence polarization, FP-Rh probe, HTS. AID 2130, 2009. recombinant PME-1. inhibition, % at 5.9 µM. actives 0.53% (n = 320,000);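 active = inhibition above the campaign mean of all compounds plus 3 SD, cut at about 26% in these data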;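 also: competitive labeling of PME-1 active site by serine hydrolase directed probe; 0% = PME-1 with DMSO and 100% = wells lacking PME-1 enzyme; inhibitors block probe labeling so polarization falls and inhibition rises; many of its hits are not listed in these tables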
# TPT1 inhibitor = Candida albicans TPT1 enzyme inhibitors, primary screen, biochemical, fluorescence polarization; tRNA 2'-phosphotransferase TPT1 (Candida albicans SC5314); actives 0.81% (n = 300,000); AID 1962, 2009; inhibition, % at 5 µM; recombinant caTPT1, FP RNA substrate dephosphorylation;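 active = inhibition above the mean of all tested compounds plus 3 SD, set per screening campaign, cut at about 24% in these data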;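 also: plate controls were DMSO alone for no effect and ferristatin control at 100 nM for full effect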
# GLD-1 RNA inh = GLD-1/TGE RNA complex disruptors, primary screen, biochemical, fluorescence polarization; AID 2280, 2010; purified GLD-1 + fluorescein TGE RNA; Female germline-specific tumor suppressor gld-1 (Caenorhabditis elegans), Q17339; inhibition, % at 5.96 µM; actives 0.44% (n = 320,000);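 active = percent inhibition above a per-plate cutoff, the plate mean of test compounds plus 3 SD, cut at about 30% in these data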;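 also: 0% = DMSO wells with GLD-1 and probe and 100% = wells lacking GLD-1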
# MEX-5 binding = MEX-5 zinc finger RNA-binding disruptors – biochemical, C. elegans, fluorescence polarization, MLPCN library, primary screen | activity score (negative = inhibition of binding), % at 10 µM | actives 0.38% (n = 300,000) | MEX-5/FITC-TCR2 RNA binding; stronger effect = lower value | Zinc finger protein mex-5 (Caenorhabditis elegans), Q9XUB2;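 active = inhibition past about -25% in most replicates, and total fluorescence under double the plate's negative control median, limit read from the data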;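 also: 0% = DMSO and -100% = 5 µM competing unlabeled TCR2 RNA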
# PAD4 inh = human PAD4 inhibitors, primary screen, biochemical, fluorescence polarization, 1536-well format; Protein-arginine deiminase type-4 (Homo sapiens), Q9UM07; recombinant PAD4, RCA probe fluorescence polarization; inhibition, % at 6.36 µM; actives 0.41% (n = 330,000); AID 485272, 2010;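 active = percent inhibition above a cutoff equal to the mean of all tested compounds plus 3 SD, cut at about 15% in these data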;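 also: 0% = PAD4 with RCA probe and DMSO and 100% = probe without PAD4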
# Target sequence (Q9UM07 whole entry, looked up): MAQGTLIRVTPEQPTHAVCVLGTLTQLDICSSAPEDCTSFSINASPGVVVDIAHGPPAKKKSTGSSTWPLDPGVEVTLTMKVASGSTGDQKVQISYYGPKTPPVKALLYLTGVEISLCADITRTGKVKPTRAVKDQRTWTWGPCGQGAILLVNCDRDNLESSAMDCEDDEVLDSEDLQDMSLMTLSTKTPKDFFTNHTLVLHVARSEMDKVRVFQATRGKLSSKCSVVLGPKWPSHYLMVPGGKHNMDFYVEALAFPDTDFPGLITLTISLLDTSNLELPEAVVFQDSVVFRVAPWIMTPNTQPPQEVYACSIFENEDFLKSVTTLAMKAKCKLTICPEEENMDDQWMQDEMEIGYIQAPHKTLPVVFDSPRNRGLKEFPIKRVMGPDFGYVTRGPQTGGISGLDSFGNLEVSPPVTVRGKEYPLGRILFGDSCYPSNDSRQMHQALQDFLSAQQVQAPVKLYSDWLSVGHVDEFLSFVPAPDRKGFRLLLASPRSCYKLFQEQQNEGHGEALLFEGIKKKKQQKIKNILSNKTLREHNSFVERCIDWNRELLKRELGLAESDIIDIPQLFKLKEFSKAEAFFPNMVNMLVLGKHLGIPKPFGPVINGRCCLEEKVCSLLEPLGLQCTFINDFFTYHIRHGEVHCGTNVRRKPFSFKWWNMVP
# Fam108B counter = mouse Fam108B serine hydrolase inhibitors, primary screen, counter-screen for RBBP9 inhibitor project, biochemical, fluorescence polarization | recombinant Fam108B, FP-Rh probe fluorescence polarization | inhibition, % at 9.51 µM | actives 0.33% (n = 300,000) | AID 1947, 2009;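 active = inhibition above the screen mean inhibition plus 3 SD, computed separately per campaign, cut at about 18% in these data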;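 also: inhibitors lower polarization as less probe binds the enzyme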
# The depositor's hits bear a star. Only part of the results is shown, so the mix of outcomes need not match the whole.
# Abbreviations – A = PME-1 primary; B = TPT1 inhibitor; C = GLD-1 RNA inh; D = MEX-5 binding; E = PAD4 inh; F = Fam108B counter
CCC(=O)N(CCC(Cc1ccccc1)c1ccco1)Cc1ccco1 (centres undefined)
  A: 2.9 | B: -0.8 | C: -3.3 | D: 0.6 | E: 1.9 | F: -0.7
Cc1cc(C)nc(SCc2nc(N)nc(-c3ccccc3O)n2)n1
  A: -6.2 | B: -0.5 | C: -0.8 | D: -1.6 | E: -3.0 | F: -1.6
COc1ccc(C(C#N)Nc2ccc(C)cc2)cc1 (centres undefined)
  A: -2.7 | B: -1.1 | C: -1.3 | D: 0.2 | E: -0.6 | F: 3.4
COc1cccc(N/C(SCc2cccc([N+](=O)[O-])c2)=C(/C#N)C(N)=O)c1
  A: 1.3 | B: 0.2 | C: 0.2 | D: 1.9 | E: -1.1 | F: -1.4
COc1ccc(-c2nnc(S/C(=C/c3ccc(Cl)cc3)C(=O)O)o2)cc1
  A: -2.9 | B: -2.5 | C: -2.5 | D: -0.9 | E: -0.8 | F: -2.6
O=C1OC(c2ccc(F)cc2)=N/C1=C\c1ccc(Br)o1
  A: -0.3 | B: -1.7 | C: -0.8 | D: 1.3 | E: -6.5 | F: 3.0
Cc1ccc(S(=O)(=O)N(CC(=O)Nc2ccccc2C(=O)O)c2ccc(Cl)cc2)cc1
  A: -6.2 | B: -0.7 | C: 4.7 | D: 2.7 | E: -3.9 | F: -0.8
COC(=O)c1cc2ccsc2n1Cc1cc(=O)n2ccccc2n1
  A: -1.2 | B: 2.4 | C: -0.9 | D: 0.9 | E: -2.7 | F: -4.8
CC(C)(C)N(Cc1ccccc1)C(=O)c1ccc2c(c1)OCCO2
  A: 3.5 | B: 1.2 | C: -2.4 | D: 0.7 | E: -5.9 | F: -6.7
COc1ccc(Nc2nc(-c3ccc(OC)cc3)c(CCC(=O)O)s2)cc1
  A: 10.9 | B: -0.7 | C: 5.2 | D: -0.1 | E: 1.0 | F: 1.4
C=CCn1c(CCNC(=O)c2ccccc2F)nnc1SCC(=O)Nc1nc(C)cs1
  A: 4.3 | B: 0.3 | C: -2.6 | D: 1.7 | E: -3.0 | F: 4.6
Nc1ccc(S(=O)(=O)Nc2ncccn2)cc1
  A: -3.4 | B: 0.8 | C: -2.0 | D: -1.7 | E: 4.1 | F: -4.3
C=CCNC(=O)Nc1ccc2nc(C)sc2c1
  A: 3.5 | B: 4.6 | C: 2.1 | D: 1.9 | E: -4.1 | F: 1.7
Cc1sc2nc(CN3CCCC3)nc(N3CCN(S(=O)(=O)c4cccs4)CC3)c2c1C
  A: -13.3 | B: 5.6 | C: -15.0 | D: 8.6 | E: 2.8 | F: -6.6
C=CCn1c(CCNC(=O)c2ccccc2F)nnc1SCC(=O)Nc1nc2ccccc2s1
  A: -1.0 | B: -1.4 | C: 4.9 | D: 2.6 | E: 6.8 | F: 3.1
O=C(Nc1cccnc1)c1sc(Nc2ccccc2)nc1-c1ccccc1
  A: 7.0 | B: -2.6 | C: 1.4 | D: 1.2 | E: -1.2 | F: 12.3
Cc1ccc(C(=O)COC(=O)c2ccc3c(c2)C(=O)N(c2cccc4ncccc24)C3=O)cc1C
  A: -11.5 | B: 2.4 | C: 7.2 | D: -0.4 | E: 3.7 | F: -4.2
COc1ccccc1C(CCN(Cc1ccccc1)C(C)=O)c1ccco1 (centres undefined)
  A: 11.6 | B: 4.5 | C: 3.9 | D: -1.3 | E: 0.7 | F: -0.5
COC(=O)c1ccc(COC(=O)c2c(C)nn(Cc3ccccc3Cl)c2Cl)o1
  A: -1.8 | B: -0.8 | C: 5.9 | D: 0.0 | E: 1.1 | F: -3.4
Cc1ccc2oc(-c3ccc(NC(=O)c4cccnc4)cc3)nc2c1
  A: -8.0 | B: 2.7 | C: -1.2 | D: -0.3 | E: -6.4 | F: -4.1

# 3 of the entries above in order of their number in PAD4 inh, descending:
SMILES | PAD4 inh
C=CCn1c(CCNC(=O)c2ccccc2F)nnc1SCC(=O)Nc1nc2ccccc2s1 | 6.8
Nc1ccc(S(=O)(=O)Nc2ncccn2)cc1 | 4.1
Cc1ccc(C(=O)COC(=O)c2ccc3c(c2)C(=O)N(c2cccc4ncccc24)C3=O)cc1C | 3.7

# The listing continues.
# Abbreviations – A = PME-1 primary; B = TPT1 inhibitor; C = GLD-1 RNA inh; D = MEX-5 binding; E = PAD4 inh; F = Fam108B counter
COC(=O)c1ccc2c(=O)[nH]c(CSc3nc(-c4ccc(F)cc4)cs3)nc2c1
  A: -14.1 | B: 5.4 | C: -4.8 | D: -2.7 | E: 1.6 | F: -10.8
O=C(O)C1c2ccccc2C(=O)N(Cc2ccc(F)cc2)C1c1ccncc1 (centres undefined)
  A: -3.0 | B: -1.3 | C: -0.8 | D: 2.2 | E: -2.8 | F: -1.0
CCCOC(=O)c1cccc(NC(=O)C(C)(C)C)c1
  A: -3.0 | B: -3.0 | C: -2.7 | D: 0.4 | E: -1.6 | F: -0.1
CCCCC(=O)Nc1ccc2c3c(cccc13)CC2
  A: 5.3 | B: -2.2 | C: 4.9 | D: 0.1 | E: -0.6 | F: -0.7
CN(Cc1ccccc1)C(=O)c1ccc2c(c1)OCCO2
  A: 0.1 | B: -1.3 | C: 3.9 | D: 0.2 | E: -0.5 | F: -0.3
CC(=O)N(CCC(c1ccco1)C(C)C)Cc1ccc(Cl)cc1 (centres undefined)
  A: -0.2 | B: -1.4 | C: 6.3 | D: 1.0 | E: 2.9 | F: 0.9
C=CCN(CC=C)C(=O)Nc1ccc2nc(C)sc2c1
  A: 5.5 | B: 0.9 | C: 2.6 | D: 1.2 | E: 4.5 | F: -0.9
CCc1ccc(C2C(C(=O)O)c3ccccc3C(=O)N2C)cc1 (centres undefined)
  A: -1.8 | B: -2.6 | C: 5.3 | D: 0.3 | E: 5.2 | F: -1.5
C=CCn1c(CCNC(=O)c2cccs2)nnc1SCC(=O)Nc1cccc(C(C)=O)c1
  A: 5.2 | B: 4.2 | C: 8.9 | D: 1.5 | E: -4.2 | F: -1.6
CCOC(=O)Nc1cccc(NC(=O)c2cc(OC)cc(OC)c2)c1
  A: 9.6 | B: 2.2 | C: 2.8 | D: -0.3 | E: -3.7 | F: -2.2

# Seven entries from above, comma-delimited:
SMILES,PME-1 primary,TPT1 inhibitor,GLD-1 RNA inh,MEX-5 binding,PAD4 inh,Fam108B counter
O=C(O)C1c2ccccc2C(=O)N(Cc2ccc(F)cc2)C1c1ccncc1 (centres undefined),-3.0,-1.3,-0.8,2.2,-2.8,-1.0
C=CCN(CC=C)C(=O)Nc1ccc2nc(C)sc2c1,5.5,0.9,2.6,1.2,4.5,-0.9
CCCOC(=O)c1cccc(NC(=O)C(C)(C)C)c1,-3.0,-3.0,-2.7,0.4,-1.6,-0.1
CCc1ccc(C2C(C(=O)O)c3ccccc3C(=O)N2C)cc1 (centres undefined),-1.8,-2.6,5.3,0.3,5.2,-1.5
CCCCC(=O)Nc1ccc2c3c(cccc13)CC2,5.3,-2.2,4.9,0.1,-0.6,-0.7
CN(Cc1ccccc1)C(=O)c1ccc2c(c1)OCCO2,0.1,-1.3,3.9,0.2,-0.5,-0.3
CCOC(=O)Nc1cccc(NC(=O)c2cc(OC)cc(OC)c2)c1,9.6,2.2,2.8,-0.3,-3.7,-2.2
